PINK1 modulator = changes PINK1 expression; PINK1 immunofluorescence, high-content cytometry, 24 h; Potency, µM (highest dose often 76.6 µM), for the others: at the top dose activation (PINK1 increase), most hits filed as activators; actives 0.2% (n = 410,000); active = well fitted activation curve with a large enough effect; inconclusive = small, poorly fitted or top-dose-only effect; inactive = flat fitted curve, though single readings scatter; cell line not stated here;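 also: potency is read from the fitted curve at half-maximal effect; % of control where 0% means no effect; nearly all actives have a fitted effect of over 65% in size; a mitochondrial uncoupler was the plate control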
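PINK1 protein, normally rapidly degraded, was detected by immunofluorescence after 24 hour compound treatment of a stable cell line. Titration data (5 concentrations) came from laser-scanning cytometry, with CCCP-treated wells as controls.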
Six1-Eya2 inh = inhibitors of human Six1/Eya2 interaction | actives 0.56% (n = 360,000) | Q15475+O00167 | activity change, % (concentration not given with the values) | AlphaScreen GST-Six1/His-Eya2 binding, biochemical; stronger effect = lower value; control for the full effect not named in the record | AID 651725; in the data active = activity change below about -65%; inconclusive = about -30% to -65%; inactive = above about -30%; also: % is scaled to controls: 0 for no effect and ±100 for the full control effect
Target sequence (O00167 whole entry, looked up): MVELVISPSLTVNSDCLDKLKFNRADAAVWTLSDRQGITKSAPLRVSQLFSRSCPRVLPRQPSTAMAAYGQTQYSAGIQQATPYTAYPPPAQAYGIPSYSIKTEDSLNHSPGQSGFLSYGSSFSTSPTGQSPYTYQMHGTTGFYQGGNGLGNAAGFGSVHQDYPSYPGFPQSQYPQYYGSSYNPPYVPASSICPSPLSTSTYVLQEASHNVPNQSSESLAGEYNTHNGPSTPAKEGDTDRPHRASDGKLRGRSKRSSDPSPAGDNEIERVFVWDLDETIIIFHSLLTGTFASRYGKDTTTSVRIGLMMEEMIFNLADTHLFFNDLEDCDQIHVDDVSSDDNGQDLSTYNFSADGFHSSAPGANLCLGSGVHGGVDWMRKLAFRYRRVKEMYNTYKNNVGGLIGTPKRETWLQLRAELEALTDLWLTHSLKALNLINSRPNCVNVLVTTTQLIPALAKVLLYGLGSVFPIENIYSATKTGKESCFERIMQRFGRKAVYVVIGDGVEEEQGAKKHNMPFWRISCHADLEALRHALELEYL
Target sequence (Q15475 whole entry, looked up): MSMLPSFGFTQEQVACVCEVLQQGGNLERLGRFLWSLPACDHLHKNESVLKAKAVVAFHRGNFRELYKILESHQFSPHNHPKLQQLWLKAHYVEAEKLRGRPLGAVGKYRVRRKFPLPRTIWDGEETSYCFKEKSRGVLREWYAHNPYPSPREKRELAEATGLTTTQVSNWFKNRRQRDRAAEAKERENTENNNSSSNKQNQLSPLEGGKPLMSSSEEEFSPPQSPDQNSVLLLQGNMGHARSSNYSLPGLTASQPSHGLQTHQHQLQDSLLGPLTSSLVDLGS
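Homogeneous AlphaScreen proximity assay pairing GST-Six1 with His-tagged Eya2 (added as 5X mix: 250 nM and 500 nM) in 50 mM Tris pH 8.0, 300 mM NaCl, 1 mM TCEP. Glutathione donor and nickel acceptor beads; 1 h, 37 °C, dark.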
D2 PAM = potentiates the human D2 dopamine receptor allosterically; potentiation, % (no concentration beside the values); P14416; DiscoveRx D2 beta-arrestin cells, luminescence, 90 min; 100% = 57 uM dopamine signal; actives 0.23% (n = 360,000); active = potentiation of 50% or more; inconclusive = 30% to 50%; inactive = 30% or less;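 also: compound concentration not given in the record; tested on top of an EC20 dose of dopamine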
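PathHunter beta-arrestin assay in DiscoveRx D2 cells. Compounds were added with an EC20 of dopamine (50 nM final) for 90 min at 37 deg C. Luminescence was read 1 h after detection reagent, with 57 uM dopamine as the EC100 control.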
TRPML1 agonist = activates the human TRPML1 channel | actives 0.12% (n = 410,000) | Q9GZU1 | activation, % (test concentration not listed) | TRPML1-expressing cells, Ca2+ dye fluorescence, FDSS; host cell line not named in the record; reference of the full effect not given here | AID 624414; in the data active = activation above about 50%; inconclusive = about 30% to 50%; inactive = below about 30%; also: 0% is about no effect; the text of the record puts the active cut at 80%
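Kinetic FDSS Ca2+ read in Tet-induced TRPML1-DL cells (ABD Ca8 dye plus quencher, 45-90 min RT loading): baseline, then compound, then 110 s agonist window; EC80 agonist 54-4 at 4uM final added afterwards for a 110 s antagonist window.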
CtBP-E1A inh = blocks the CtBP interaction with E1A | actives 0.49% (n = 340,000) | AID 651724 | AlphaScreen GST-E1A/His-CtBP binding, 1536-well; stronger effect = lower value; control for the full effect not named in the record | activity change, % (no concentration beside the values); in the data active means activity change below about -65%; inconclusive means about -30% to -65%; inactive means above about -30%; also: % is scaled to controls: 0 for no effect and ±100 for the full control effect; compound concentration not given in the record
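GST-E1A and His-tagged CtBP (125 nM each as 5X stock) were preincubated with pin-transferred compound for 2 h at 37 °C in the dark, then glutathione donor and nickel acceptor beads were added for 1 h before AlphaScreen reading.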
D2 agonist = human D2 receptor agonism in beta-arrestin assay; P14416; DiscoveRx PathHunter D2 beta-arrestin, luminescence, 90 min; 100% = 57 uM dopamine signal; activation, % (test concentration not listed); actives 0.084% (n = 360,000); AID 624465; in the data active = activation above about 40%; inconclusive = about 15% to 40%; inactive = below about 15%; also: compound concentration not given in the record; the text of the record calls up to 30% inactive
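DiscoveRx PathHunter D2 beta-arrestin cells (2,100/well) attached overnight, then compound-stimulated 90 min at 37 C in HBSS/10 mM HEPES/0.1% Tween-20 buffer; beta-galactosidase complementation read by luminescence after 1 h at ambient temperature. Dopamine 57 uM final (EC100) as control.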
Starred values were filed as active, the others as inactive; ? = inconclusive; nt = not tested or not shown; & = joins results of further samples; [ ] = another dose, or the depositor's remark. The order is random (roughly 1.3% active in at least one column).

SMILES	PINK1 modulator	Six1-Eya2 inh	D2 PAM	TRPML1 agonist	CtBP-E1A inh	D2 agonist
CSCCNC(=O)C1(C)CCN1C(=O)c1ccc(C(C)(C)C)cc1 (configuration not stated)	-0.5%	-3	-4	-0.6	1	-2.2
Cc1nn(CC(=O)NCC2CCCO2)c(C)c1[N+](=O)[O-] (configuration not stated)	2.0%	9	-1	1.6	0	-2.9
CC1=NN(c2ccc(N)cc2)C(=O)C1	-0.6%	?	-6	-0.4	5	-3.4
C/C=C(/C)C(=O)O[C@@H]1c2c(ccc3ccc(=O)oc23)O[C@@H]1C(C)(C)OC(=O)/C(C)=C\C	20%	-2	4	1.8	9	0.2
COc1ccc(OC)c(C2c3[nH]c4ccccc4c3C[C@H]3C(=O)N(C4CC4)CC(=O)N23)c1 (some centres not stated)	4.4%	-3	-8	0.7	nt	-4.8
CS(=O)(=O)c1ccc(Cl)c(NC(=O)Nc2ccccc2)c1	0.9%	2	-33	nt	5	-2.1
CC(C)(C)OC(=O)CNC(=O)c1[nH]cnc1C(=O)NC1CCN(C(=O)OC(C)(C)C)CC1	2.1%	2	-12	0.5	nt	3.5
CCOc1cccc(-c2c(C(=O)N/N=C/c3sccc3C)nnn2-c2nonc2N)c1	-0.2%	-1	-6	0.1	nt	2.1
Cc1cc(C)cc(NC(=O)c2cc(S(=O)(=O)NCc3ccco3)ccc2F)c1	2.4%[38.3 µM]	-10	-10	2.5	-7	-2.6
CCCC(=O)NCCSC	1.0%	3	-5	-1.0	4	-1.6
CCCCCc1c(-c2cccc(Cl)c2)ncn1CCc1ccccc1OC	8.0%	-4	nt	-0.6	-4	nt
COc1cc(C)ccc1S(=O)(=O)NC(=O)C1(C)CCN1C(=O)Cc1ccc(Cl)cc1Cl (configuration not stated)	1.0%	23	-1	-0.5	-1	-3.1
COc1ccc(/C=C/C(=O)OCC(=O)NCCCc2ccccc2)cc1OC	1.9%	-2	1	1.3	?	0.9
C/C(=N\NC(=S)Nc1cccc(C)c1)c1cc2ccccc2o1	-0.4%	-16	-3	2.6	15	-11
CN(CC(=O)Nc1c(Cl)cccc1Cl)C(=O)CNC(=O)c1ccc2c(c1)OCO2	5.9%	2	-24	-1.0	3	-3.3
COc1ccc(C#Cc2cccc(-c3nc(C(=O)NCCCN4CCOCC4)cc4c3[C@H](CCO)N(S(=O)C(C)(C)C)C4)c2)cc1OC (some centres not stated)	10%	-25	-7	-0.1	-12	-2.1
O=C(O)c1cccc(N/N=C/c2cccnc2)c1	-2.0%	0	0	-0.3	-1	2.3
CCc1cc(C(=O)N2CCCC(CO)(Cc3ccc(F)cc3)C2)n(C)n1 (configuration not stated)	1.5%	-2	-10	0.3	-10	-1.7
COc1ccc(/C=N/NC(=O)c2ccc(N)cc2)cc1Cn1cc([N+](=O)[O-])cn1	2.3%	-3	-11	0.3	0	-1.5
CCOc1ccc(N(CC(=O)NC2CCCC2)C(=O)CSc2nnc(COc3ccccc3)o2)cc1	-2.7%[38.3 µM]	-4	-14	1.3	4	0.4
O=C(Nc1cccc2ccccc12)N1CCN(c2ccccc2)CC1	7.6%	8	5	-0.6	0	0.4
COc1cc(-c2nnc(-c3ccc(N4CCOCC4)cc3)o2)cc(OC)c1OC	-2.1%[38.3 µM]	-1	6	0.1	-2	-1.7
COc1ccccc1NC(=O)CSc1nnc(COc2ccc(Cl)cc2)o1	-0.2%	8	-12	-0.8	0	-5.1
Cc1cccc(C(=O)Nc2ccc(NC(=O)c3ccccc3)cc2)c1	-0.2%	1	-1	2.2	2	3.0
COc1ccc(S(=O)(=O)N2CCOC2CNC(=O)C(=O)NCc2ccco2)cc1C (configuration not stated)	1.3%	3	-4	1.5	2	1.5

Additional structures:
SMILES	PINK1 modulator	Six1-Eya2 inh	D2 PAM	TRPML1 agonist	CtBP-E1A inh	D2 agonist
CCOC(=O)N1CCN(C(=O)c2cn(CC(C)C)c(=O)c3c2c2ccccc2n3C)CC1	18%[38.3 µM]	0	-6	-0.2	1	0.4
CCCCN1C(=O)C(O)(c2ccccc2)c2cc(Br)ccc21 (configuration not stated)	2.7%	-1	-14	1.2	-1	-0.8
O=C(N/N=C/c1ccc(OC(F)F)cc1)c1cc[n+]([O-])cc1	0.5%	3	3	0.0	2	-2.9
CCC(CO)NC(=O)c1ccccc1C(F)(F)F (configuration not stated)	1.4%	6	-3	0.8	2	0.3
CCCCCCCCCC1(CC(=O)OCC)SCCN1C(N)=O (configuration not stated)	5.1%	0	-5	-0.1	4	-4.6
CN(C)c1ncnc2[nH]ncc12	0.3%	-1	-2	0.4	6	1.3
O=C(CC1(O)C(=O)N(Cc2cccc3ccccc23)c2ccccc21)c1cccnc1 (configuration not stated)	7.4%[38.3 µM]	-3	-7	-0.8	-4	-4.2
CC(C)C(N)c1csc(Nc2ccc(S(C)(=O)=O)cc2)n1 (configuration not stated)	-0.1%	11	-6	0.2	0	-5.0
COc1ccc(CCNC(=O)[C@@H](NC(=O)N2CC(=O)Nc3ccccc32)C(C)C)cc1OC	-0.2%	1	-5	-1.0	0	4.4
Nc1nc(-c2nc3ccccc3[nH]2)cs1	1.5%	-12	-1	-0.1	-26	0.1
Clc1ccccc1Cn1nnc2c(Nc3ccccc3)ncnc21	-3.5%[38.3 µM]	2	1	2.4	7	0.3
Cc1cc(C)nc(SCC(=O)NC2CCCCC2C)n1 (configuration not stated)	0.4%	4	8	0.3	-14	-2.5
N#Cc1ccc(OCC(=O)NCC(c2cccs2)N2CCOCC2)cc1 (configuration not stated)	1.0%	1	-12	0.4	5	1.1
CCOc1ccc(N(CC(=O)NCc2cccs2)S(=O)(=O)c2c(C)noc2C)cc1	-0.5%	4	-12	1.2	3	-0.8
COC(=O)C[C@H]1c2cc(F)ccc2S(=O)(=O)N1Cc1ccccc1	0.6%	4	-11	-0.4&-1.1	3	-3.5
CCCCOC(=O)c1ccc(NC(=O)CSc2nncn2C)cc1	-2.7%	-2	-2	0.2	17	0.3
COC(=O)c1cc(NS(=O)(=O)c2ccc(C)c3ccccc23)ccc1N1CCOCC1	1.4%	-21	-8	0.7	-21	-5.7
COc1cccc(-n2c(SCC(=O)N3CCc4ccccc43)nnc2-c2c[nH]c3ccccc23)c1	3.9%	3	-2	-0.2	5	-6.2
CC(OC(=O)c1cccs1)C(=O)NC1CCCCC1C (configuration not stated)	0.6%	4	-3	0.0	-1	-3.2
Nc1ccc(C23CC4CC(CC(C4)C2)C3)cc1	4.1%	-19	-5	1.6	-17	-2.3
COc1ccc(NC2CCCN(C(=O)c3cccc(C)n3)C2)cc1OC (configuration not stated)	-0.1%	3	-4	0.5	nt	4.8
O=C(COc1ccc(S(=O)(=O)N2CCOCC2)cc1)NCc1ccccc1	1.3%	11	-15	0.0	8	-4.2
CCOC(=O)c1[nH]cnc1C(=O)Nc1cccc(N)n1	1.8%	?	3	0.0	0	-4.8
Cc1ccc(S(=O)(=O)N2CCOCC2)cc1NC(=O)CSc1nnc(NC2CC2)s1	1.0%	4	-4	0.3	-1	-6.4
C[C@@H]1CN([C@H](C)CO)S(=O)(=O)c2ccc(-c3cccc(C#N)c3)cc2O[C@H]1CN(C)C(=O)Nc1cc(F)ccc1F	-0.5%	-4	1	-0.9	-2	-4.9

The list continues.
SMILES	PINK1 modulator	Six1-Eya2 inh	D2 PAM	TRPML1 agonist	CtBP-E1A inh	D2 agonist
CCOC(=O)c1cn2nc(Oc3ccc(OC)cc3)ccc2n1	0.5%	6	-5	-1.0	nt	-1.8
CCC(=O)c1ccc(O)c(CC=C(C)C)c1	12%	-6	-11	3.6	5	-4.0
CN(CCC#N)C(=O)COC(=O)c1ccc(Cl)c(S(=O)(=O)N(C)c2ccccc2)c1	2.5%	5	12	0.1	-17	7.8
O=C(CSCC(=O)OCC(=O)c1ccc(Br)cc1)Nc1cccc2ccccc12	-2.5%	-1	-4	1.1	-2	-4.4
CCOc1cc(-c2cc(-c3ccc(N)cc3)nc(N)c2C#N)ccc1O	-2.5%	0	-11	1.4	?	7.6
Cc1cccc(N2CCN(C(=O)c3cc(S(=O)(=O)N(C)C)ccc3N3CCCC3)CC2)c1C	0.7%	0	-8	-1.2	-1	1.1
CC/C(C)=N/N1C(=O)c2ccccc2NC1(C)CC (configuration not stated)	6.0%	-1	1	-0.4	-10	1.5
COc1ccc2c(c1OC)C(=O)N1C2SC(C)(C)[C@H]1C(=O)NCCCOC(C)C (some centres not stated)	0.1%	1	-7	-0.2	2	0.3
O=C(c1cc(-c2ccc3c(c2)OCO3)on1)N1CCN(c2ccccc2)CC1	9.6%[38.3 µM]	-15	10	2.3	-15	1.5
COc1ccc(C(O)(c2ccccc2OC)C(CN2CCOCC2)c2ccccc2)cc1 (configuration not stated)	4.8%	-27	-23	0.8	-11	-5.6
COc1ccc(C2=NN(C(=O)CCC(=O)O)C(c3cccs3)C2)cc1 (configuration not stated)	0.4%	4	3	-0.8	-10	-18
COc1ccc(S(=O)(=O)NCc2ccncc2)cc1NC(=O)c1ccccc1	-0.2%	0	3	1.4	-2	-0.9
O=C(Nc1sc2c(c1C(=O)O)CCCCC2)c1ccco1	-0.1%[38.3 µM]	-1	4	-0.5	-4	1.7
O=C(C[C@H]1C/C=C\C[C@H](NC(=O)OCC2c3ccccc3-c3ccccc32)C(=O)O[C@H](c2ccccc2)CNC1=O)N[C@H](CO)Cc1ccccc1	4.9%	-12	-8	-0.1	-28	-2.7
Cc1nnc(N2CCCCC2)c2ccccc12	-2.0%	3	0	-1.0	7	-2.7
CCOC(=O)C1CCCN(c2c(N3CCC(N4CCCCC4)CC3)c(=O)c2=O)C1 (configuration not stated)	-0.7%	9	-2	-0.1	-14	-1.5
Cc1ccc(NC2(C#N)C(=O)Nc3ccccc32)cc1 (configuration not stated)	0.7%	6	-21	-0.6	-3	-11
CCc1nc(N2CCN(C(=O)CCl)CC2)c2c3c(sc2n1)CC(C)CC3 (configuration not stated)	-1.8%	-3	-3	-1.1	3	-0.5
Nc1ccccc1C(=O)NC1CCCNC1=O (configuration not stated)	0.5%	1	-7	2.5	-7	-2.0

Sorted by SMILES length (falling): part of the list above
SMILES	PINK1 modulator	Six1-Eya2 inh	D2 PAM	TRPML1 agonist	CtBP-E1A inh	D2 agonist
COc1ccc(C#Cc2cccc(-c3nc(C(=O)NCCCN4CCOCC4)cc4c3[C@H](CCO)N(S(=O)C(C)(C)C)C4)c2)cc1OC (some centres not stated)	10%	-25	-7	-0.1	-12	-2.1
CN(CCC#N)C(=O)COC(=O)c1ccc(Cl)c(S(=O)(=O)N(C)c2ccccc2)c1	2.5%	5	12	0.1	-17	7.8
COC(=O)c1cc(NS(=O)(=O)c2ccc(C)c3ccccc23)ccc1N1CCOCC1	1.4%	-21	-8	0.7	-21	-5.7
COc1ccc(S(=O)(=O)N2CCOC2CNC(=O)C(=O)NCc2ccco2)cc1C (configuration not stated)	1.3%	3	-4	1.5	2	1.5
O=C(CSCC(=O)OCC(=O)c1ccc(Br)cc1)Nc1cccc2ccccc12	-2.5%	-1	-4	1.1	-2	-4.4
COC(=O)C[C@H]1c2cc(F)ccc2S(=O)(=O)N1Cc1ccccc1	0.6%	4	-11	-0.4&-1.1	3	-3.5

Source: PubChem
